Bioassay records: PubChem, several laboratories
GALR2 agonist: GALR2 (human) receptor agonism; GALR2-expressing cells, agonist activation read-out; hit rate 0.48% among 140,000; activation, %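 (tested at 5 µM)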;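 active means above mean plus 3 SD of all compounds, about 5% in these data, not always enough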;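 further: 0% = vehicle buffer wells and 100% = reference agonist at full effect; tested in CHO reporter cells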
Target sequence (O43603 whole entry, looked up): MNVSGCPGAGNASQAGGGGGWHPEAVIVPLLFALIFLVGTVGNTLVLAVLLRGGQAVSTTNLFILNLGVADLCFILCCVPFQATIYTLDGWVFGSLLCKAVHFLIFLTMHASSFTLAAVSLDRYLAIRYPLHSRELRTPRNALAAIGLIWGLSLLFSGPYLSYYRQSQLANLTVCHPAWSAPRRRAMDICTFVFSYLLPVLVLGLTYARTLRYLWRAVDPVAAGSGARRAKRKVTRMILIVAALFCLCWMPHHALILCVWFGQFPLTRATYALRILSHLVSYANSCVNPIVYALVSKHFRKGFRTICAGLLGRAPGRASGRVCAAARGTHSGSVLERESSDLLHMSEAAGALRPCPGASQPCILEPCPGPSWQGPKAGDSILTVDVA
Insulin prom inh: TRM-6 insulin promoter activity inhibition | TRM-6 cells (human fetal islet line), insulin promoter-eGFP reporter, imaging; reporter expression induced with tamoxifen | inhibition, % at 2 µM | hit rate 0.9% among 130,000 | AID 1273;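 active means inhibition above the mean plus 3 SD, with well images judged a real hit on visual review, cut at about 60% in these data, passing the limit was not always enough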
PKD1 inh: inhibitors of human PKD1 kinase. Q15139. PKD1 kinase fluorescence polarization assay. inhibition, %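 (about 10 µM by stock and volumes)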. hit rate 0.056% among 200,000. AID 797;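 active means inhibition of 50% or more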;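 further: controls were vehicle for no effect and a reference inhibitor for full effect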
HSV replic up: increases HSV replication in cells | HSV replication augmentation in cells, fold increase | maximum fold increase | hit rate 0.005% among 220,000 | AID 1956;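 active means peak rise of 1.5-fold or more in the series; tested in PC3 cells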;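 further: first round at 10 µM; read as green reporter fluorescence; hits show the peak of a series up to 25 µM; 1 = signal of infected wells without compound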
RGS16-Gao: RGS16-Galphao interaction regulator (human); binding response (% of control), % at 10 µM; hit rate 0.38% among 220,000; AID 1441; bead-based flow cytometry RGS16-Galphao binding, fluorescence; actives lie on both sides;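 active means below 25% or above 175%, edge rows of some plates excepted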;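 further: Galphao activated by GDP with aluminum fluoride before binding; 100% = wells without compound and 0% = beads without RGS; some results beyond the cut were filed as inactive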
Target sequence (O15492 whole entry, looked up): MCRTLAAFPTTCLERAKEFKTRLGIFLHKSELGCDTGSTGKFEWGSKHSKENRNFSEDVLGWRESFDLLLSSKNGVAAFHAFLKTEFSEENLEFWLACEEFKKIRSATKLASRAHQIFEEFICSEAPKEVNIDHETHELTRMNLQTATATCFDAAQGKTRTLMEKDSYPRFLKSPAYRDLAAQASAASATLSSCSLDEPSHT
Target sequence (P09471 whole entry, looked up): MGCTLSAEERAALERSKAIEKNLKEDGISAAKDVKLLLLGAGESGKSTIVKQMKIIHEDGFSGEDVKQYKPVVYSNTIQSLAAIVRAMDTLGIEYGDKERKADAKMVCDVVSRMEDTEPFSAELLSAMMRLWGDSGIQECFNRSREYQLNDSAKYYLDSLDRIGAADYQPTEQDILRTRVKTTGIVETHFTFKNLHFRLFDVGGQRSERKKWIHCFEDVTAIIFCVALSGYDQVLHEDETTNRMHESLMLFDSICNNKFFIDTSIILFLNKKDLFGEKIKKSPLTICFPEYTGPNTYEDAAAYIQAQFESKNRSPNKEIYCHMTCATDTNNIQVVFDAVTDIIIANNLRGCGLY
Insulin prom inh cell count: second read-out of Insulin prom inh, no call of its own (marks repeat the call); normalized cell count, %; measured here: cell count, toxicity; reference of the scale not given here;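 cells exposed to compound for 48 h; stained nuclei by imaging scaled within each plate; lower means fewer cells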
HSV replic up primary fold: further read-out of HSV replic up, marked with its call; fold increase; compound at 10 µM; measured here: primary screen fold increase 10 uM; tested in PC3 cells;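 GFP signal in the first replicate; 1 = infected wells without compound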
* marks the source's active call; other numbers are inactive results; i = inactive; nt = not tested or not shown.

SMILES	GALR2 agonist	Insulin prom inh	Insulin prom inh cell count	PKD1 inh	HSV replic up	HSV replic up primary fold	RGS16-Gao
CCOC(=O)c1sc2nc3n(c(=O)c2c1C)CCC(C)CC3 (configuration not stated)	0.5	nt	nt	10	i	0.86	99
COc1ccc(NS(=O)(=O)c2cccc(NC(=O)CCC(=O)c3ccc(Cl)cc3)c2)cc1	-0.7	nt	nt	0	i	0.98	104
COc1ccc(Oc2nc(C(F)(F)F)nc3ccccc23)cc1	-1.5	19	82	-7	i	1.4	91
COC(=O)[C@H](C)NC(=O)Nc1cccc(C(F)(F)F)c1	-0.2	1	131	-3	i	0.85	101
Oc1ccccc1N1CCN(C(=S)NCCc2ccccc2)CC1	-2.5	20	95	0	i	0.86	102
COc1ccc(N2CC(C(=O)Nc3ccc(F)cc3F)CC2=O)cc1 (configuration not stated)	-1.0	59	149	-7	i	1	111
COc1ccc(CCNC(=O)CSc2nc3[nH]ncc3c(=O)n2-c2ccc(C)c(Cl)c2)cc1OC	nt	-50	30	-2	i	0.78	110
O=C(C1CC1)N1CCc2cc(S(=O)(=O)N(CCO)Cc3ccccc3)ccc21	-2.3	56	86	-1	nt	nt	98
O=Cc1ccc(-c2ccc(F)cc2)o1	nt	13	109	-4	i	0.99	102
COc1ccccc1OP(=O)(O)Oc1ccccc1OC	nt	nt	nt	0	i	0.99	95
Cc1ccc(C)c(N(CC(=O)NN=C2CCN(C)CC2)S(=O)(=O)c2ccccc2)c1	-0.6	8	164	-14	i	1	109
Cc1cc(-c2nc(C)c(-c3nnc(SCC(=O)Nc4ccc(Cl)cc4)n3C)s2)no1	nt	nt	nt	nt	i	1	98
O=C1CCC(=O)N1CCSC(=S)N1CCOCC1	nt	nt	nt	nt	i	1.2	97
COCc1cc(=O)[nH]c2c1c(-c1ccccc1)nn2C	nt	nt	nt	nt	i	1.2	101
O=C(O)c1ccc(COc2ccccc2/C=C2/NC(=O)N(c3cccc(Cl)c3)C2=O)cc1	0.2	45	62	5	i	1.1	37
COc1ccccc1C(=O)NCC(=O)N/N=C/c1cc(Br)ccc1OCc1ccccc1	-0.2	25	47	2	i	0.82	57
O=C(CN(c1ccc(Cl)cc1)S(=O)(=O)c1ccc(Cl)c([N+](=O)[O-])c1)NCCc1ccccc1	nt	nt	nt	3	i	0.84	116
O=C(COc1ccccc1)N1CCN(c2nnc(-c3ccccc3)c3ccccc23)CC1	0.5	9	78	2	i	0.95	99
N/C(=N\OC(=O)c1cc(-c2ccccc2)nc2ccccc12)c1cccnc1	-0.3	-23	100	-9	nt	nt	63
COc1cc2c(cc1OC)C(c1ccc(-c3cc(Cl)ccc3Cl)o1)=NCC2	-0.1	-30	89	7	i	0.8	102

Arranged by length of the SMILES (low to high): part of the list above
SMILES	GALR2 agonist	Insulin prom inh	Insulin prom inh cell count	PKD1 inh	HSV replic up	HSV replic up primary fold	RGS16-Gao
O=Cc1ccc(-c2ccc(F)cc2)o1	nt	13	109	-4	i	0.99	102
O=C1CCC(=O)N1CCSC(=S)N1CCOCC1	nt	nt	nt	nt	i	1.2	97
COc1ccccc1OP(=O)(O)Oc1ccccc1OC	nt	nt	nt	0	i	0.99	95
Oc1ccccc1N1CCN(C(=S)NCCc2ccccc2)CC1	-2.5	20	95	0	i	0.86	102
COc1ccc(Oc2nc(C(F)(F)F)nc3ccccc23)cc1	-1.5	19	82	-7	i	1.4	91
CCOC(=O)c1sc2nc3n(c(=O)c2c1C)CCC(C)CC3 (configuration not stated)	0.5	nt	nt	10	i	0.86	99
COC(=O)[C@H](C)NC(=O)Nc1cccc(C(F)(F)F)c1	-0.2	1	131	-3	i	0.85	101
COc1ccc(N2CC(C(=O)Nc3ccc(F)cc3F)CC2=O)cc1 (configuration not stated)	-1.0	59	149	-7	i	1	111
COc1cc2c(cc1OC)C(c1ccc(-c3cc(Cl)ccc3Cl)o1)=NCC2	-0.1	-30	89	7	i	0.8	102
O=C(C1CC1)N1CCc2cc(S(=O)(=O)N(CCO)Cc3ccccc3)ccc21	-2.3	56	86	-1	nt	nt	98
O=C(COc1ccccc1)N1CCN(c2nnc(-c3ccccc3)c3ccccc23)CC1	0.5	9	78	2	i	0.95	99
Cc1cc(-c2nc(C)c(-c3nnc(SCC(=O)Nc4ccc(Cl)cc4)n3C)s2)no1	nt	nt	nt	nt	i	1	98
O=C(O)c1ccc(COc2ccccc2/C=C2/NC(=O)N(c3cccc(Cl)c3)C2=O)cc1	0.2	45	62	5	i	1.1	37
COc1ccc(CCNC(=O)CSc2nc3[nH]ncc3c(=O)n2-c2ccc(C)c(Cl)c2)cc1OC	nt	-50	30	-2	i	0.78	110
O=C(CN(c1ccc(Cl)cc1)S(=O)(=O)c1ccc(Cl)c([N+](=O)[O-])c1)NCCc1ccccc1	nt	nt	nt	3	i	0.84	116

Part of the list above, with bars between the fields:
structure | GALR2 agonist | Insulin prom inh | Insulin prom inh cell count | PKD1 inh | HSV replic up | HSV replic up primary fold | RGS16-Gao
O=C(COc1ccccc1)N1CCN(c2nnc(-c3ccccc3)c3ccccc23)CC1 | 0.5 | 9 | 78 | 2 | i | 0.95 | 99
O=C(O)c1ccc(COc2ccccc2/C=C2/NC(=O)N(c3cccc(Cl)c3)C2=O)cc1 | 0.2 | 45 | 62 | 5 | i | 1.1 | 37
O=C(CN(c1ccc(Cl)cc1)S(=O)(=O)c1ccc(Cl)c([N+](=O)[O-])c1)NCCc1ccccc1 | nt | nt | nt | 3 | i | 0.84 | 116

Other compounds
SMILES	GALR2 agonist	Insulin prom inh	Insulin prom inh cell count	PKD1 inh	HSV replic up	HSV replic up primary fold	RGS16-Gao
CN(C)C(=O)/C(=C\c1ccncc1)NC(=O)c1ccccc1	nt	nt	nt	-1	i	0.92	99
CCN(CC)S(=O)(=O)c1cccc(C(=O)Nc2cccnc2)c1	-1.6	-11	171	-3	i	0.95	90
Cc1ccc(S(=O)(=O)CC(C)N2CCOCC2)c(S(=O)(=O)CC(C)N2CCOCC2)c1 (configuration not stated)	-2.2	-19	129	-5	i	0.82	102
O=C(c1ccccc1)N1N=C(c2ccccc2)CC1c1ccccc1[N+](=O)[O-] (configuration not stated)	-0.2	-28	151	-4	i	1	107
O=C(NC1CCCCC1)C(c1cccnc1)N(C(=O)c1csnn1)C1CCCC1 (configuration not stated)	-2.1	-343	64	-8	i	0.96	114
CCN(CC)C(=O)c1sc(NC(=O)c2ccc(Br)o2)c(C(=O)OC)c1C	-1.0	nt	nt	0	i	0.89	102
COCC(C)NC(=O)c1ccc(N(C)C)cc1 (configuration not stated)	-0.3	-12	116	-10	i	0.98	103
c1cnc(N2CCN(Cc3c[nH]c4ccccc34)CC2)nc1	-1.2	25	140	9	i	0.95	108
Cc1c(C(C)C)c(=O)n(-c2ccc(S(=O)(=O)N3CCOCC3)cc2)n1C	nt	nt	nt	2	i	1.1	106
O=C(Nc1ccc(NC(=O)C2CC2)nc1)c1cccc(F)c1	-1.8	-7	94	-4	i	0.91	101
CCOc1ccccc1C(=O)NCCC(=O)O	-2.6	45	113	-2	i	0.96	253
COc1ccc(NC(=O)Nc2ccc(F)c(F)c2)c(OC)c1	nt	nt	nt	-3	i	1.1	102
CCCn1nc(C(=O)N2CCc3ccccc3C2)c2ccccc2c1=O	-0.8	-71	97	1	i	0.99	95
CCOCCCNC(=S)Nc1ccc(S(N)(=O)=O)cc1	-0.8	-17	112	-11	i	1	97
Nc1nnc(SCC(=O)OCC(=O)NC2CCCCC2)s1	nt	29	89	0	i	1.1	99
CNCCCOc1ccc(C)cc1OC	nt	nt	nt	5	i	1	106
O=c1/c(=C\c2cccc(O)c2)sc2nc(-c3ccccc3)c(-c3ccccc3)n12	nt	nt	nt	nt	i	0.99	102
COc1ccccc1/C=C/C(=O)OC(C)CN1CCOCC1 (configuration not stated)	-2.5	-14	94	-8	i	0.77	98
CC(C)CCNC(=O)Cn1cc2c(n1)CCCCC2	-1.7	nt	nt	-2	i	0.95	96
Cc1cccc(COc2ccc(/C=N/NC(=O)c3nnn(-c4nonc4N)c3COc3ccc(F)cc3)cc2)c1	nt	nt	nt	nt	i	0.78	100
NNC(=O)c1ccc(O)cc1O	-0.6	-16	149	-4	i	0.93	80
Cc1ccc(Cl)cc1NC(=S)NCc1cccn1C	-0.5	-94	161	-1	i	1	97
COCCOc1cnn(-c2cc(Oc3ccc(C)cc3)ncn2)c(=O)c1Cl	-1.6	-18	65	-7	i	0.99	98
O=C(O)c1cc(-c2ccc(/C=N/Nc3ccc(Cl)cc3)o2)ccc1Cl	7.9	nt	nt	0	i	0.81	101
CCc1nc2c(sc3nc4c(cc32)COC(C)(C)C4)c(=O)n1CCN(CC)CC	nt	nt	nt	0	i	0.88	100
Cc1cn(C2CC3OCC3O2)c(=O)[nH]c1=O (configuration not stated)	-3.9	18	117	2	i	0.99	102
COc1ccc(C2/C=C\CN(C(=O)CC(C)C)CC(=O)N2Cc2ccc(F)cc2)cc1 (configuration not stated)	nt	nt	nt	nt	i	0.91	107
CCn1c(CNC(=O)COc2ccc(C(C)C)cc2)nnc1SCC(=O)NC1CCCCC1C (configuration not stated)	-0.6	6	109	-4	i	0.84	108
CC(C)N(CCNC(=O)c1oc(=O)c2ccccc2c1-c1ccccc1)Cc1ccco1	nt	-29	131	0	i	0.95	107
CSc1nsc(SC)c1NC(=O)Nc1ccccn1	-3.0	8	64	-2	i	0.88	95
N#CCc1ccc(NS(=O)(=O)c2cccs2)cc1	-1.4	9	144	-4	i	0.76	104
Cc1ccc(C(=O)OCC(=O)NCCN2C(=O)CSC2=O)cc1	-1.2	40	137	5	i	0.86	100
O=C(c1cc(S(=O)(=O)Nc2ccccc2F)c(Cl)cc1Cl)N1CCN(CCO)CC1	nt	25	142	-5	i	0.73	96
Cc1sc2nc(CSc3ccccc3)nc(N3CCN(C)CC3)c2c1C	0.0	23	83	-18	i	0.67	101
COc1ccc(/C=C/C(=O)C(C(N)=O)=C2SCCS2)cc1	-0.8	nt	nt	2	i	0.79	29
CCOC(=O)CSc1nc2ccccc2n1CC(=O)NC(C)(C)C	0.4	-7	68	4	i	1	83
CCOC(=O)N1CCN(CCC(=O)c2ccc(OC)cc2)CC1	nt	17	217	5	i	0.91	100
C#CCNC(=O)c1cc2sccc2n1C	nt	-18	124	-4	i	0.86	102
COc1cc(C2C(C#N)=C(N)Oc3n[nH]c(C)c32)cc2c1OCO2 (configuration not stated)	0.9	nt	nt	-5	i	1	105
CN(C)CCNc1oc(COc2cccc(Cl)c2)nc1C#N	-0.7	nt	nt	-7	i	0.96	105
N#Cc1ccc(COC(=O)CSc2nnc(C3CCCCC3)n2N)cc1	-1.4	nt	nt	-10	i	0.91	99
Cc1cc(=O)n2[nH]c(SCc3ccccc3)nc2n1	-1.8	-28	107	-7	i	1	95
O=C(O)c1cc2c(s1)CCCC2	-0.1	-41	59	4	i	0.98	107
C/C(=C\c1ccco1)CN1CCC(N2CCC(C(=O)N3CCOCC3)CC2)CC1	nt	nt	nt	-1	i	0.92	99
Cn1cc(Br)c(C(=O)NC2C3CC4CC(C3)CC2C4)n1 (configuration not stated)	-0.2	0	129	-3	i	1.1	100
O=C(Cc1ccccc1)Nc1ccccc1N1CCN(c2ccccc2)CC1	-1.2	nt	nt	-11	i	0.96	104
O=C(CSc1ccsc1[N+](=O)[O-])NC1CCCC1	nt	-43	53	0	i	1	105
Cc1ccc(NC(=O)C(C)c2ccc([N+](=O)[O-])cc2)cc1Cl (configuration not stated)	-0.7	nt	nt	2	i	0.91	50
COc1cnc(-c2ccccn2)nc1Oc1cccc(Cl)c1	0.5	nt	nt	-5	i	0.83	100
Brc1ccc(-c2csc(NNC3=NCCCCC3)n2)cc1	-1.4	-8	40	3	i	0.85	98
Cc1ccccc1NC(=S)N(CCCN1CCOCC1)Cc1ccccn1	-2.0	-11	69	-5	i	0.98	153
